RE007 growth inh: qHTS Assay for Inhibitors of the HIV-1 protein Vpr. S. pombe RE007 Vpr strain, BacTiter-Glo ATP luminescence, 24 h; control for the full effect not named in the record. Potency, µM (top dose mostly 92.2 µM), without a hit: at the highest dose activity change, negative = less growth. actives 0.21% (n = 360,000). AID 651644, 2012; active = well fitted falling curve with a large enough effect; inconclusive = small, poorly fitted or top-dose-only effect; inactive = no such curve, though single readings can be large or run the other way;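 further: on the % scale 0 is the no-effect control and ±100 the full control effect; nearly all actives have a fitted effect of over 50% in size; the assay follows cell death caused by Vpr and the record does not say whether a fall means rescue or toxicity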
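Fission yeast RE007 carrying one integrated HIV-1 vpr copy, seeded at OD 0.01 in PMG+AL medium with 23 nL pinned compound. Grown 24 h at 30 degrees; viability read by BacTiter-Glo luminescence after 5 min.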
LASV entry inh: qHTS for Inhibitors of binding or entry into cells for Lassa Virus; Potency, µM (doses to about 37.9 µM), inactives show at the highest dose activity change, negative = inhibition, hits mostly inhibitors; actives 1.2% (n = 300,000); Lassa virus pseudotype entry inhibition, cell reporter; control for the full effect not named in the record; AID 540256, 2011; active means well fitted inhibition curve with a large enough effect; inconclusive means small, poorly fitted or top-dose-only effect, or effect the other way; inactive means flat fitted curve, though single readings scatter; tested in HEK293 cells; further: on the % scale 0 is the no-effect control and ±100 the full control effect; nearly all actives have a fitted effect of over 50% in size; luciferase read-out
StopGo reporter: High Throughput Screening for Foot and Mouth Disease Virus Antivirals. Potency, µM (top dose mostly 57.9 µM), for inactives: top-dose signal change, negative = less light. human cells with a luciferase reporter of 2A StopGo recoding; control for the full effect not named in the record. actives 1.2% (n = 410,000); active = well fitted falling curve with a large enough effect; inconclusive = small, poorly fitted or top-dose-only effect; inactive = no such curve, though single readings can be large or run the other way; tested in HEK293T cells; further: on the % scale 0 is the no-effect control and ±100 the full control effect; nearly all actives have a fitted effect of over 45% in size; luciferase light after 4 h
Cruzain inh noDet: qHTS Assay for Promiscuous and Specific Inhibitors of Cruzain (without detergent) | Potency, µM, without a hit: max response, negative = inhibition, usual class: inhibitors | actives 2.3% (n = 200,000) | purified cruzain, Z-FR-AMC fluorescence, no detergent | Cruzipain (Trypanosoma cruzi), P25779 | AID 1476, 2009;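 further: plate controls were enzyme without inhibitor for no effect and buffer without enzyme for full effect; nearly all actives have a fitted effect of over 40% in size; top concentration of the series not given in the record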
Target sequence (P25779 123-467 limits assumed): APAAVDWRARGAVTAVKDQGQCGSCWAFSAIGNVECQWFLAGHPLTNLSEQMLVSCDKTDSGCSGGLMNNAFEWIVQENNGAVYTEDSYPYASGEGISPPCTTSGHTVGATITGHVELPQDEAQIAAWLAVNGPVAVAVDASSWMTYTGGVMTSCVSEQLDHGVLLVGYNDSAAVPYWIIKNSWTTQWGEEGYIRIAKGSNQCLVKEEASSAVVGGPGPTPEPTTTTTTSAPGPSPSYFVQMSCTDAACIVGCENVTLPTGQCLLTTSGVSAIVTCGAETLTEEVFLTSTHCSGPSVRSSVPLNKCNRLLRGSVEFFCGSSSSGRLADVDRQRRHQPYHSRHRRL
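Detergent-free condition (0.00005% Triton X-100) in acetate buffer pH 5.5 with DTT. 1.5 nM enzyme and compound were pre-mixed 15 min, then 2 uM Z-FR-AMC substrate added; reaction progress from fluorescence change between first and third reads (60 s).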
MARV entry inh: qHTS for inhibitors of binding or entry into cells for Marburg Virus | Marburg virus pseudotyped entry inhibition, cell reporter; control for the full effect not named in the record; about a third of the inactives were read at about 46 µM | Potency, µM (doses to about 37.8 µM), inactives show at the highest dose activity change, negative = inhibition, actives largely listed as inhibitors | actives 1.8% (n = 300,000); active = well fitted inhibition curve with a large enough effect; inconclusive = small, poorly fitted or top-dose-only effect, or effect the other way; inactive = flat fitted curve, though single readings scatter; tested in HEK293 cells; about a fifth of its hits are not listed in these tables; further: on the % scale 0 is the no-effect control and ±100 the full control effect; luciferase read-out
SARS PLP yeast: qHTS of Yeast-based Assay for SARS-CoV PLP | S. cerevisiae expressing SARS-CoV PLpro, growth rescue; control for the full effect not named in the record | Potency, µM (titrated, usually from 32.9 µM), inactives show at the highest dose activity, positive = growth rescue | actives 0.19% (n = 330,000) | AID 485353, 2010; active means well fitted rising curve with a large enough effect; inconclusive means small, poorly fitted or top-dose-only effect; inactive means no such curve, though single readings can be large or run the other way; further: 0% is about no effect; nearly all actives have a fitted effect of over 55% in size; growth read by luminescence after 48 h
Cruzain inh Det: qHTS Assay for Promiscuous and Specific Inhibitors of Cruzain (with detergent). actives 0.43% (n = 200,000). purified cruzain, Z-FR-AMC fluorescence, 0.01% Triton. Potency, µM, without a hit: max response, negative = inhibition, usual class: inhibitors. Cruzipain (Trypanosoma cruzi), P25779. AID 1478, 2009;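 further: plate controls were neutral wells for no effect and buffer without enzyme for full effect; nearly all actives have a fitted effect of over 40% in size; top concentration of the series not given in the record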
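Sodium acetate buffer (100 mM, pH 5.5) containing 5 mM DTT and 0.01% Triton X-100 hosted 1.5 nM cruzain and test compound for 15 min at room temperature. Cleavage of 2 uM Z-FR-AMC was then tracked by fluorescence.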
NS1 function inh: qHTS Assay for Inhibitors of Influenza NS1 Protein Function; actives 0.4% (n = 270,000); S. cerevisiae slowed by influenza A NS1, growth recovery by OD600; AID 2326, 2010; Potency, µM (highest dose often 46.1 µM), without a hit: top-dose activity, positive = more growth; active means well fitted rising curve with a large enough effect; inconclusive means small, poorly fitted or top-dose-only effect; inactive means no such curve, though single readings can be large or run the other way; further: nearly all actives have a fitted effect of over 50% in size
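Recovery from NS1-induced slow growth read by OD600 in budding yeast switched to galactose assay medium (pH 6.0, -URA) at 1:100 dilution. Compound 23 nl per well; the matching strain lacking NS1 serves as control.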
Numbers without * were called inactive; ? = inconclusive; / = no result given; & = joins results of further samples; [ ] = another dose, or the depositor's remark. Unless noted, the call rests on the fitted dose curve; in most records, active means well fitted curve in the direction sought with a large enough effect; inconclusive means small, poorly fitted or top-dose-only effect, or another doubt; inactive means no such curve, though single readings can be large; an effect the other way counts as inactive or inconclusive. Potency means the concentration at half of the fitted maximal effect.

SMILES	RE007 growth inh	LASV entry inh	StopGo reporter	Cruzain inh noDet	MARV entry inh	SARS PLP yeast	Cruzain inh Det	NS1 function inh
Cc1ccc(-c2csc3nc[nH]c(=S)c23)cc1C	-25%	?	-24%	-1%	-4%	?	-10%	27%
CC(C)c1ccc(NC(=O)C(Cc2ccccc2)n2cccc2)cc1 (stereo not drawn)	/	/	-18%	1%	20%[46.1 µM]	/	-8.5%	/
CC1CN(S(=O)(=O)c2cccc(C(F)(F)F)c2)CN1C(=O)N1CCOCC1 (stereo not drawn)	-13%	1%	1%	/	5%[46.1 µM]	2%	/	19%
Cc1ccc(C(=O)Nc2c(C(=O)NCc3ccc(Cl)cc3)sc3nc(C)cc(C)c23)cc1	/	-18%[46.1 µM]	-23%	-6%	0%[46.1 µM]	/	0.0%	/
CC(CCN1CCN=C1Nc1ccccc1)c1ccccc1 (stereo not drawn)	-9%	/	-13%	/	/	4%	/	5%
CCOc1ccc(S(=O)(=O)N2CCCCC2)c2ccccc12	-11%	9%	3%	-5%	-5%	-40%	-1.2%	-127%
NC(=O)c1ccc(NC(=O)CCCNC(=O)c2ccc(Cl)cc2)cc1	2%	/	-13%	/	/	1%	/	0%
Cc1ccc2[nH]c(=O)c(COC(=O)c3cccs3)cc2c1	14%	5%	-3%	?	1%	13%	1.9%	-3%
CN1CC=C2C(C#N)=C(N)C(C#N)(C#N)C(Cc3ccccc3)C2C1 (stereo not drawn)	-4%	5%	9%	-11%	2%&2%	-4%	-22%	5%
CCOc1ccccc1NC(=O)NS(=O)(=O)c1ccc(C)cc1	15%	1%	8%	-2%	?	-3%	1.8%	-4%
O=C(CSc1ccc(Cl)cc1)Nc1nnc(-c2cccc([N+](=O)[O-])c2)s1	9%	-1%	-9%	?	9%	-32%	-1.6%	-5%
N#CC1(NC(=O)CSc2n[nH]c(-c3ccccc3)n2)CCCCC1	4%	?	0%	/	4%	0%	/	/
O=S(=O)(NCc1ccc(Cl)cc1)c1cccc2cccnc12	5%	/	52%[activator]	/	/	-1%	/	-31%
CCOC(=O)CC(NC(=O)CCc1c(C)nc2c(-c3ccccc3)c(C)nn2c1C)c1ccc(C)cc1 (stereo not drawn)	/	1%[46.1 µM]	0%	?	?	/	-1.3%	/
O=S(=O)(Nc1ccc2c3c(cccc13)CC2)c1ccc(F)cc1	-28%	12%	7%	-12%	?	-30%	-4.1%	-66%
O=C(c1ccc(F)cc1)N1CCCC(C(=O)N2CCN(c3ccccc3)CC2)C1 (stereo not drawn)	0%	-1%	0%	/	1%	0%	/	-6%
CCOC(=O)C1(CC2CCCCO2)CCN(Cc2nccn2-c2cccc(C)c2)CC1 (stereo not drawn)	-8%	/	-14%	/	/	0%	/	-1%
CC(C)n1c2ccccc2c2nnc(SCC(=O)Nc3ccccc3C(=O)O)nc21	5%	-15%	10%	/	26%[46.1 µM]	1%	/	/
COc1ccc(-n2c(=O)[nH]c3ccccc3c2=O)c(OC)c1	-14%	-1%	25%	-1%	19%	2%	1.9%	-3%
CSc1ccc(/C=C(/NC(=O)c2ccc(C)cc2)C(=O)Nc2cccc(C)c2)cc1	-8%	-8%	-27%	6.3µM*	-5%	-21%	-5.8%	0%
CCOC(=O)C1(CC2CCCCO2)CCN(S(=O)(=O)c2c(C)nn(C)c2C)CC1 (stereo not drawn)	5%	3%	-5%	/	0%[46.1 µM]	-1%	/	-3%
O=C(c1ccc(NS(=O)(=O)c2ccc(Cl)cc2)cc1)N1CCOCC1	-23%	0%	5%	/	14%	1%	/	3%
CCOC(=O)c1cccc(Nc2c3c(nc4ccccc24)CCC3)c1	/	?	?	3%	?	/	-14%	/
Cc1cc(Cl)ccc1NC(=O)C1CCCN1S(=O)(=O)c1ccc2c(c1)CCCC(=O)N2 (stereo not drawn)	/	-17%[46.1 µM]	?	14%	/	/	-1.2%	/
CCc1ccc(NC(=O)C2CCC(CNS(=O)(=O)c3ccc4c(c3)CC(C)N4C(C)=O)CC2)cc1 (stereo not drawn)	/	-1%[46.1 µM]	18µM*	?	/	/	-0.3%	/
Cc1nnc(NC(=O)C2CC(=O)N(c3ccccc3)C2)s1 (stereo not drawn)	-2%	11%[46.1 µM]	8%	/	3%[46.1 µM]	2%	/	1%
Cc1ccc(C(=O)CSc2nnc(COc3ccccc3)o2)cc1	?	?	-14%	/	-1%[46.1 µM]	0%	/	6%
COc1ccc2c(c1)OCC1=C2CCC2(C)C(=O)CC=C12 (stereo not drawn)	/	/	/	?	-2%	-14%	-14%	-8%
CC(NC(=O)c1cccc2ccccc12)c1ccc2c(c1)CCCC2 (stereo not drawn)	37%	?	?	5%	?	?	-4.8%	12%
COc1ccccc1NC(=O)CCn1nc(-c2ccccc2)c2ccccc2c1=O	/	-1%[46.1 µM]	-8%	?	?	/	-5.3%	/
CCOC(=O)c1[nH]c2ccc(OC)cc2c1NC(=O)CN1CCSCC1	0%	-6%	-19%	-11%	-4%	11%	-4.0%	-2%
O=C(CN1CCN(C(c2ccccc2)c2ccccc2)CC1)N1CCOCC1	6%	-5%	/	13%	-6%&1%	8%	4.6%	-2%
O=C(Nc1nnc(CCN2CCCCC2)s1)c1ccccc1Cl	6%	5%[46.1 µM]	-5%	/	15%[46.1 µM]	-8%	/	/
COc1ccc(OC)c(/C=N/NC(=O)Cn2ccnc2C)c1	-4%	/	-19%	/	/	0%	/	1%
OCCNc1nc2ccccc2nc1NCCO	-5%	-4%[46.1 µM]	30%	/	-2%[46.1 µM]	0%	/	-1%
O=C(CN1C(=O)CCc2cc(S(=O)(=O)N3CCOCC3)ccc21)NCc1ccccc1	/	-4%[46.1 µM]	-2%	-10%	/	/	2.2%	/
COc1ccc(CNc2nc(-c3ccco3)nn2C(=O)c2ccccc2C)cc1	/	?	34%[activator]	-2%	?	/	-5.8%	/
CN1CCN(c2nc(Nc3ccc(O)cc3)nc3ccccc23)CC1	-13%	?	-1%	/	?	-1%	/	/
CC(C)[C@@H](C(=O)NCc1ccco1)N1C(=O)N2CCc3c([nH]c4ccccc34)[C@@]2(C)C1=O	-3%	/	-29%	/	/	7%	/	24%
CCOc1ccc(NC(=S)N2CCCCCC2)cc1	-14%	0%	73%[activator]	/	0%	1%	/	/
O=C(O)c1ccc(-c2ccccc2)[nH]c1=O	-2%	/	15%	/	/	4%	/	0%
Oc1c(Br)cc(Br)cc1-c1nc2ccccc2s1	/	3%[46.1 µM]	-4%	1%	/	/	0.6%	/
Cc1ccc(-c2noc(-c3ccccc3C(=O)NCc3ccco3)n2)cc1	-23%	-6%[46.1 µM]	18%	/	?	-3%	/	-13%
O=C(CSc1ncnc2ccccc12)NCCCO	-8%	-2%	-9%	-7%	-3%	0%	-3.4%	?
COc1ccc(-c2n[nH]c3c2C(c2ccc(O)cc2)N(c2ccc(Br)cc2)C3=O)cc1 (stereo not drawn)	/	-1%[46.1 µM]	32µM*	?	-8%[46.1 µM]	/	-1.4%	/
Cc1noc(C)c1S(=O)(=O)NC1CCN(Cc2ccccc2)CC1	4%	/	0%	-16%	/	-3%	0.1%	3%
C/C(=N\NC(=O)c1ccccn1)c1ccc(Cl)cc1	-2%	?	23%	/	?	-2%	/	-31%
Cn1c(=O)c2c(ncn2CCOc2ccc(F)cc2)n(C)c1=O	13%	-19%[46.1 µM]	?	/	?	-1%	/	-12%
COc1ccc(C(=O)CSc2ccc(-c3ccc(C)cc3)nn2)cc1	1%	?	-14%	-5%	-7%	5%	-4.6%	-3%
NC(=O)c1ccccc1NC(=O)CSc1nc2c(c(=O)[nH]1)CCCC2	0%	6%	18%	/	-28%[46.1 µM]	15%	/	4%
O=C(NCCCl)Nc1cc([N+](=O)[O-])ccc1Cl	9%	5%[46.1 µM]	0%	/	-1%[46.1 µM]	4%	/	0%
CNC(=O)c1nnn(Cc2ccccc2)c1NC(C)=O	15%	6%	-10%	-7%	-1%	4%	5.3%	-3%
Cc1ccc(NC(=O)COC(=O)[C@H](C)N2C(=O)C3CC=CCC3C2=O)cc1S(=O)(=O)N(C)C (stereo partly drawn)	-4%	?	19%	/	-15%[46.1 µM]	0%	/	/
CCOC(=O)C1=C(N)c2ccccc2CC1C(C)C (stereo not drawn)	2%	9%	-11%	5%	?	-1%	-5.2%	-7%
Cc1ccc(N=Nc2ccc(O)c(P(=O)(c3ccccc3)c3ccccc3)c2)cc1	0%	/	23%	/	/	0%	/	0%
CCN1CCN(C(=O)c2cccc(OC3CCN(S(=O)(=O)N(C)C)CC3)c2)CC1	?	13%	7%	/	19%	1%	/	13%
Cc1ccc(OCCSc2ncnc3sc(C)c(C)c23)cc1C	-4%	-12%	-18%	-3%	?	-2%	2.8%	-9%
CC(CCc1ccccc1)NC(=O)c1cccc([N+](=O)[O-])c1 (stereo not drawn)	24%	10%	-10%	-2%	?	9%	-3.4%	-6%
CC(C)c1ccc(/C=N/N2CCCCC2)cc1	10%	4%	-11%	/	?	-6%	/	/
Clc1ccccc1OCCCCn1ccnc1	-1%	3%	-4%	?	-10%	-6%	-0.4%	-8%
CC1CN=C(NCc2ccccc2)S1 (stereo not drawn)	-11%	10%	6%	-1%	18%	3%	0.8%	-2%
CCCn1c(N)c(N(CCOC)C(=O)c2ccccc2)c(=O)[nH]c1=O	-13%	2%[46.1 µM]	7%	/	2%[46.1 µM]	2%	/	-8%
